Yeast UUG start: yeast start codon fidelity modulation; S. cerevisiae UUG-firefly luciferase reporter, luminescence/redox ratio; activity score, % at 18.7 µM; 0.13% of 350,000 active; AID 602363;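 active means replicate mean at a twofold rise or more, about +100% in these data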;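 further: firefly luciferase made from a UUG start codon reports start codon fidelity; reporter light over untreated wells divided by growth signal over untreated wells; some hits fall short of that in this replicate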
Rce1 inhib: yeast Ras-converting enzyme inhibition; Q03530; yeast membranes, quenched prenylated peptide cleavage fluorescence; calls only; 0.27% of 290,000 active; AID 2563;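 active means fall in fluorescence gain of 50% or more versus controls, with final raw signal at or below 3038400; inconclusive means same 50% fall but final raw signal above 3038400; inactive means fall in fluorescence gain under 50%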;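 further: plate controls were neutral control wells for no effect and wells lacking membranes for full effect; tested at 10 µM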
PABP FP inh: PABP-poly(A) binding inhibition. P11940. PABP-poly(A) RNA binding, fluorescence polarization. AID 2014. 1% of 290,000 active. inhibition, % at 35 µM;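 active means 50% or more with normal probe brightness, or confirmed in later tests; inconclusive means above 50% with abnormal brightness, or retests that disagree; inactive means below 50% or failed in later tests; about a fifth of its hits are not listed in these tables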;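 further: calls also rest on retests at 20 µM and on dose response follow-up; controls were probe without protein and protein plus probe with vehicle; some compounds called inactive have numbers as strong as hits; many hits fall short of the cut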
Target sequence (P11940 whole entry, looked up): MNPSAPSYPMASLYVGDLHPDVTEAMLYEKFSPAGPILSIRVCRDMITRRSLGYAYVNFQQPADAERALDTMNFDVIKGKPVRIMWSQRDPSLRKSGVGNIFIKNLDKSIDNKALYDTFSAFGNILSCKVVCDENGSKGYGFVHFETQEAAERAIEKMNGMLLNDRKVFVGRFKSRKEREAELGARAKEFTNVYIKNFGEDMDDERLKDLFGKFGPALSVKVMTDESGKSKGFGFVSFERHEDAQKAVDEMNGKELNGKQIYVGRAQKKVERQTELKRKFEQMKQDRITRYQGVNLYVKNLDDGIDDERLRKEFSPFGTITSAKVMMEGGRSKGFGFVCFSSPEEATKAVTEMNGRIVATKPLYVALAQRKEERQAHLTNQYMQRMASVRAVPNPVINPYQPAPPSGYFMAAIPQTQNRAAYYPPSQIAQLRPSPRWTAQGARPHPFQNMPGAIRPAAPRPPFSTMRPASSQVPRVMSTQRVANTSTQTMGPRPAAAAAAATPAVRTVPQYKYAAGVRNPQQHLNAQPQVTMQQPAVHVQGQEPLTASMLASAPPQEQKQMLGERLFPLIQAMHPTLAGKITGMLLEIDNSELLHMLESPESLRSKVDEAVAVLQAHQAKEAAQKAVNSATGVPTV
CSC inhib: cancer stem cell inhibition; AID 2717; cancer stem cell-like cells viability, luminescence; inhibition, % at 7.5 µM; 1.1% of 300,000 active;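 active means mean at 75% or more and at least half the replicates too; inconclusive means mean and replicates disagree; tested in HMLE shEcad cells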;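 further: 0% = median of negative and 100% = median of positive control wells; the first replicate is given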
eIF4H FP inh: inhibitors of RNA binding by human eIF4H. eIF4H fluorescence polarization binding assay. inhibition, % at 35 µM. 0.94% of 290,000 active. AID 2012;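 active means 50% or more with normal probe brightness, or confirmed in later tests; inconclusive means above 50% with abnormal brightness, or retests that disagree; inactive means below 50% or failed in later tests; about a fifth of its hits are not listed in these tables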;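 further: calls also rest on retests at 20 µM and on dose response follow-up; 0% = protein and probe with vehicle and 100% = probe without protein; strong numbers were not always called active; many hits fall short of the cut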
Env fusion inh: inhibitors of HIV Env-mediated cell fusion; HeLa-JRFL Env/CEM21 cell fusion, luciferase; 1.1% of 360,000 active; AID 651610; inhibition, % at 12.3 µM;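 active means mean replicate inhibition score of at least 50 and every replicate individually at or above 50; inconclusive means only one of the two criteria met; inactive means mean below 50 and not all replicates reaching 50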;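 further: 0% = plate neutral controls and 100% = maraviroc near 300 nM; one replicate is shown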
MT1-MMP act inh: blocks activation of human MT1-MMP. HT1080 RFP-PRO-GFP cells, GFP/RFP ratio fluorescence, overnight; percent of plate control window, DMSO zero. GFP/RFP ratio change, % at 20 µM. 0.061% of 360,000 active. AID 651647;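 active means GFP/RFP ratio change of at least 30% with cell ATP level not reduced by more than half and red fluorescence within 50% of control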; further: strong numbers were not always called active
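system = RFP-PRO-GFP reporter HT1080 cells | dosing = 20 µM single dose, 1% DMSO | timing = overnight cell settling, then overnight compound exposure, 37 °C, 5% CO2 | read-out basis = GFP/RFP fluorescence ratio | controls = DMSO and RFP-L50D-GFP cell wells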
PABP FP inh retest: second read-out of PABP FP inh, no call of its own (marks repeat the call); inhibition, %; compound at 20 µM; confirmation repeats;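 mean of two retest wells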
MT1-MMP act inh RFP: second read-out of MT1-MMP act inh, no call of its own (marks repeat the call); RFP signal change, %; measured here: RFP expression control read;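 0 = vehicle wells; hits needed this value within 50% of zero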
The depositor's hits bear a star; i = inactive; ? = inconclusive; . = not tested or not shown. Some of the compounds tested, so the mix of outcomes need not match the whole.

SMILES	Yeast UUG start	Rce1 inhib	PABP FP inh	CSC inhib	eIF4H FP inh	Env fusion inh	MT1-MMP act inh	MT1-MMP act inh RFP	others
CS(=O)(=O)N1CCCC(c2nc(-c3ccc(S(=O)(=O)NCc4ccccc4)cc3)no2)C1 (centres undefined)	-20	i	6	.	-9	.	-6	-20
Cc1ccc(S(=O)(=O)Cn2nnnc2C(CC(C)C)N2CCN(C)CC2)cc1 (centres undefined)	.	i	0	-4	-11	17	1	2
CN(C(=O)c1cccc(Cl)c1)C1CCCN(Cc2ccccc2F)C1 (centres undefined)	-27	i	-1	-2	5	15	1	-2
O=C1c2ccccc2C(O)N1Cc1ccccc1Cl (centres undefined)	-8	i	7	8	-12	20	3	5
CC(=O)NC(CC(=O)OC(C)C(=O)Nc1ccc(Cl)cn1)c1ccccc1 (centres undefined)	.	i	.	-28	.	-2	-5	-2
O=C(COC(=O)CN1C(=O)C2CCCCC2C1=O)Nc1c(Cl)cccc1Cl (centres undefined)	-13	.	.	.	.	-8	1	3
CC(Oc1ccc(C(=O)NC2CCCCC2)cc1)C(=O)O (centres undefined)	-9	i	12	-4	-2	.	-4	-1
CC1CC(NNC(=O)c2ccccc2)=Nc2ccccc2N1C (centres undefined)	-13	i	10	-9	2	-18	3	7
Cc1ccc(S(=O)(=O)Nc2c(C)nc3nc[nH]n3c2=O)c(C)c1	-16	i	-1	-28	-7	4	0	3
Cc1ccc(CN2CCN(CC(=O)NC(C)CCc3ccccc3)C2=O)cc1 (centres undefined)	12	i	-4	-1	4	9	-1	-3
Cc1nn(CC(=O)N2CCC(C(N)=O)CC2)c(=O)c2nn(-c3ccccc3)c(C)c12	-1	i	8	-7	-10	-3	0	4
O=C(CSCc1n[nH]c(=O)[nH]1)NCCOc1cccc(Oc2ccccc2)c1	-21	i	3	-10	3	-2	-1	1
COC(=O)c1ccc(CSc2cc(C)c3cccc(C)c3n2)o1	-3	i	-3	7	35	12	5	1
Cc1cc(-c2csc(N)n2)c(C)n1C	-11	i	107*	8	118*	.	-1	3
COc1ccc(N2CCN(C(=O)[C@H](Cc3c[nH]c4ccccc34)NC(C)=O)CC2)cc1	.	i	14	6	-4	-2	-5	-3
CN(CC(=O)Nc1c(Cl)cccc1Cl)C(=O)CCc1nc2sc3c(c2c(=O)[nH]1)CCCC3	.	i	.	.	.	-83	-4	-1
CC(O)[C@H]1CNC(=O)C(=O)N1CC(C)(C)C (some centres undefined)	-13	i	1	-7	5	10	1	3
CCOC(=O)c1ccc(-n2c(CN3CCN(CC)CC3)nc3ccc([N+](=O)[O-])cc3c2=O)cc1	.	i	-13	-14	-5	0	2	-2
S=C1NCN(Cc2cccnc2)CN1c1cccc(Cl)c1	-13	i	-8	-7	5	-2	0	-2
CCOc1ccc(-c2cc(C(=O)NCCCN3CCN(CC)CC3)c3ccccc3n2)cc1	.	i	-6	10	-6	-9	4	-8

4 compounds already listed, arranged by SMILES length, largest number first:
SMILES	Yeast UUG start	Rce1 inhib	PABP FP inh	CSC inhib	eIF4H FP inh	Env fusion inh	MT1-MMP act inh	MT1-MMP act inh RFP	others
CCOC(=O)c1ccc(-n2c(CN3CCN(CC)CC3)nc3ccc([N+](=O)[O-])cc3c2=O)cc1	.	i	-13	-14	-5	0	2	-2
CC(=O)NC(CC(=O)OC(C)C(=O)Nc1ccc(Cl)cn1)c1ccccc1 (centres undefined)	.	i	.	-28	.	-2	-5	-2
COC(=O)c1ccc(CSc2cc(C)c3cccc(C)c3n2)o1	-3	i	-3	7	35	12	5	1
CC1CC(NNC(=O)c2ccccc2)=Nc2ccccc2N1C (centres undefined)	-13	i	10	-9	2	-18	3	7

Three records picked at random from the list so far, as already listed:
SMILES	Yeast UUG start	Rce1 inhib	PABP FP inh	CSC inhib	eIF4H FP inh	Env fusion inh	MT1-MMP act inh	MT1-MMP act inh RFP	others
COC(=O)c1ccc(CSc2cc(C)c3cccc(C)c3n2)o1	-3	i	-3	7	35	12	5	1
CS(=O)(=O)N1CCCC(c2nc(-c3ccc(S(=O)(=O)NCc4ccccc4)cc3)no2)C1 (centres undefined)	-20	i	6	.	-9	.	-6	-20
O=C1c2ccccc2C(O)N1Cc1ccccc1Cl (centres undefined)	-8	i	7	8	-12	20	3	5

Continuation:
SMILES	Yeast UUG start	Rce1 inhib	PABP FP inh	CSC inhib	eIF4H FP inh	Env fusion inh	MT1-MMP act inh	MT1-MMP act inh RFP	others
CC(C)(C)CN1C(N)=NC[C@@H]1Cc1ccccc1	-14	i	.	-5	.	7	2	5
O=C(Nc1ccc2ccccc2n1)Nc1cccs1	-12	i	4	-4	2	-259	1	-1
CCOC(=O)C1=C(CSc2nc(-c3ccccc3)ccc2C#N)OC(N)=C(C#N)C1c1ccccc1 (centres undefined)	-20	i	?	5	?	.	-68	21
CCCOc1ccc(OCCSc2nnc(N)s2)cc1	-1	i	5	21	7	.	.	.
C=C1CCN([C@@H](CC(C)C)C(=O)NN2CCOCC2)S(=O)(=O)c2ccccc21	-13	i	.	26	.	-3	-1	2
Cc1cc2c(cc1C)NC(=O)CC(C(F)(F)C(F)(F)C(F)(F)F)=N2	-6	i	-3	-8	11	-21	-2	1
COC(=O)c1sc(NC(=O)COc2ccccc2)nc1C	-18	i	4	.	-2	.	0	3
Cn1c(=O)c2[nH]c(CCc3ccncc3)nc2n(C)c1=O	-10	.	.	.	.	3	-2	1
C[C@H](Nc1ccc(C(F)(F)F)cc1[N+](=O)[O-])C(=O)O	-5	i	6	13	-7	2	0	5
COC(=O)CCc1c(C)c(C(=O)c2cccc(OC)c2OC)c2ccccn12	-16	i	14	-5	6	8	4	3
O=C(COC(=O)c1cc[n+]([O-])cc1)Nc1ccc(Br)cc1	-4	.	.	-2	.	.	6	3
O=C(Oc1csc(=S)n1C(=O)c1ccccc1)c1ccccc1	.	i	10	-12	-3	.	9	9
N#Cc1ccc(C(=O)OCC(=O)N2CCCCCC2)cc1	6	.	.	.	.	-2	-3	2
COc1cc2[nH]c(C(=O)N(C)C3CCS(=O)(=O)C3)cc2c(OC)c1OC (centres undefined)	4	i	-3	2	-9	-2	2	3
O=C(Nc1ccccc1-c1ccccc1)C1CCCC1	.	i	-9	4	2	-25	-3	0
COc1cc(/C=C/C(=O)O)cc(S(=O)(=O)Nc2ccc3c(c2)CCC3)c1OC	7	i	8	.	-2	0	-1	1
COc1ccc(C)cc1NC(=O)c1ccc(N(C)S(C)(=O)=O)cc1	0	i	14	.	-8	-96	-3	-6
CCc1ccccc1N1C(=O)C2CC(C)=C(C)CC2C1=O (centres undefined)	-7	i	4	-9	-4	.	-3	0
Cc1ccc(S(=O)(=O)CCSc2cccc(C(=O)Nc3ccccc3C(=O)O)c2)cc1	-22	i	-1	.	1	2	6	10
CC(=O)c1ccc(NC2=C(N3CCOCC3)C(=O)c3ccccc3C2=O)cc1	-8	i	8	5	-1	.	-5	1
S=C(c1c[nH]c2ccc(Br)cc12)N1CCOCC1	.	i	13	13	-6	-10	1	-6
COc1ccc(NC(=O)C2CCN(S(=O)(=O)c3ccc(OC)c(OC)c3)CC2)c(OC)c1	-17	i	-11	-3	-7	-13	-5	1
O=C(OCC(=O)N1CCCCC1)c1n[nH]c(=O)c2ccccc12	-13	.	.	.	.	-3	1	4
O=C(Cn1cccc1C(=O)c1ccccc1)NCCc1ccccc1	-8	i	6	12	4	0	-3	0
COc1ccc(-c2cnc3c(NC=O)cc(-c4ccccc4)cn23)cc1OC	-6	.	.	.	.	42	-6	4
CCN(CC)C(=O)C1CCCN(C(=O)Nc2ccccc2)C1 (centres undefined)	-20	i	-8	-10	-3	6	2	4
COc1ccc(N/C=C/C(=O)c2cc(OC)c(OC)c(OC)c2)cc1	2	i	-8	68	-10	-206	11	-3
CC1(C)Cc2c(c(-c3ccco3)nc3sc4c(NCCCO)ncnc4c23)CO1	-14	.	18	8	17	3	.	.
COc1ccccc1CSc1nc2ccccc2[nH]1	-4	i	1	-4	0	.	3	-2
CCOC(=O)N1CCN(S(=O)(=O)c2ccc(OC)c(Br)c2)CC1	-3	i	4	-4	1	-1	.	.
Cc1c(NC(=O)CN2C(=O)NC3(CCC(C)CC3)C2=O)c(=O)n(-c2ccccc2)n1C (centres undefined)	.	i	-9	.	0	-1	3	4
CCn1c(-c2csc(-c3ccc(Cl)cc3)n2)n[nH]c1=S	-16	i	-9	-17	0	.	2	4
CN(C)S(=O)(=O)c1ccc(Cl)c(NC(=O)COC(=O)C2CSC3(C)CCC(=O)N23)c1 (centres undefined)	.	i	-9	-9	-8	5	3	1
Cc1cc(C)nc(SCC(=O)Nc2cc(C)on2)n1	-14	i	-13	-10	-2	-13	0	6
Cc1cc2nnc(SC(C)C#N)n2c2ccccc12 (centres undefined)	-18	i	5	0	-2	-231	4	-1
CCc1ccc(CNC(=O)c2ccc(OC3CCN(C(C)=O)CC3)c(OC)c2)nc1	-30	i	-5	-10	-8	-233	1	2
CCn1c(NC(=O)c2cccs2)c(-c2cccs2)c(=O)c2ccccc21	1	i	0	-10	2	7	7	1
Cc1ccc(C)c(Nc2ncccc2C(=O)NCc2cccs2)c1	0	i	76*	15	?	0	-12	-5	PABP FP inh retest=123*
CSc1oc(-c2cccs2)nc1S(=O)(=O)c1ccccc1	-40	i	0	-12	-12	-13	1	1
CCOC(=O)C1CCN(C(=O)CCc2nnc3ccc(N4CCC(C)CC4)nn23)CC1	-21	i	3	-6	-5	-9	1	0
CCOC(=O)N1CCC(N(CCOC)C(=O)Nc2ccc(Cl)c(Cl)c2)CC1	-17	i	1	-5	-4	.	-1	-5
COc1cc(NC(=O)C2CCN(S(=O)(=O)c3cccs3)CC2)c(C(=O)O)cc1OC	-11	.	.	.	.	-5	1	10
COc1ccc2nc(N3CCCC3)[nH]c2c1	-12	i	18	-5	-1	-1	8	4
Cc1ccc(S(=O)(=O)NCC(=O)N(CC(=O)NC(C)(C)C)Cc2cccs2)cc1	-15	i	-2	-3	7	-30	2	0
CC(Sc1n[nH]c(-c2cccs2)n1)C(=O)N1CCCC1 (centres undefined)	-18	.	.	3	.	-12	0	-2
COc1ccc(N(CC(=O)N/N=C/c2ccc(C(=O)O)cc2)S(=O)(=O)c2ccc(NC(C)=O)cc2)cc1	2	i	2	0	9	-8	0	2
COc1ccc(S(=O)(=O)N2CCN(C(=O)C3CCCO3)CC2)cc1 (centres undefined)	-3	i	2	1	-15	11	-2	2
COc1ccccc1C(=O)NNC(=O)c1cccc(O)c1	-59	i	-10	-1	-7	-430	-3	-3
COc1ccc(Br)cc1/C=N/NC(=O)Cn1nnnc1N	-10	i	5	25	4	-21	-2	-2
COc1ccc(N2CCN(c3nc(=S)n(-c4ccccc4)c(C)c3C(C)=O)CC2)cc1	17	i	59*	-3	68*	.	-60	1
CCOC(=O)c1cccc(NC(=O)CSc2nnc(COc3ccccc3)n2CC)c1	-20	i	-6	-16	-8	-24	-4	-10
COCCNc1nnc(SCC(=O)NC(=O)c2ccc(Cl)cc2)s1	-16	.	.	.	.	-20	-1	6
O=C(NNc1ccc(F)cc1)c1c(F)cccc1Cl	-14	i	-14	4	-3	5	0	4
O=C(Nc1ccc2ccccc2c1)c1cccc(F)c1	-5	i	19	15	2	-181	-3	0
CCN(CC)C(=O)c1cc2c(=O)c3cc(Cl)ccc3oc2nc1C	-21	i	0	-14	-10	3	3	1
CC(C)CN(C(=O)C(C)N1C(=O)c2ccccc2C1=O)c1c(N)n(Cc2ccccc2)c(=O)[nH]c1=O (centres undefined)	4	i	.	-9	.	-32	0	2
COc1cc(NC(=O)CSc2nc(=O)n(CCN3CCOCC3)c3c2CCCC3)cc(OC)c1	-7	i	.	0	.	1	-2	2

Screens deposited in PubChem BioAssay by several laboratories.
